Bioassay records as filed in PubChem BioAssay.
H5N1 CPE: MDCK cell protection from H5N1 avian flu. 96,000 tested, 0.07% active. inhibition, % at 50 µM. cytopathic effect, luminescence, 72 h; active compounds read high; no value below 0 was filed and about half of the inactive calls have no number; reference of the scale not given here. AID 740, 2007; in the data active means inhibition above about 25%
* = called active by the depositor; i = inactive. Some of the compounds tested (hit frequency here may not be typical).

| canonical_smiles | H5N1 CPE |
| --- | --- |
| CC(C)(C)NC(=O)CSc1nnc(C2CC2)n1Cc1ccccc1 | i |
| CCOc1ccc(N2C(=O)C(c3ccccc3)=C(c3nc4ccccc4s3)C2NC(C)=O)cc1 (configuration not stated) | i |
| COc1cccc(-n2nnc3c(=O)n(Cc4ccc(C)cc4)cnc32)c1 | 0.9 |
| CCCc1nc2c(nnn2Cc2ccccc2F)c(=O)[nH]1 | 0.3 |
| CCN(CC)Cc1nc2c(c(=O)[nH]1)C1(CCCC1)Cc1ccccc1-2 | 1.0 |
| CC(=O)OC(C)(CCC(C)(OC(C)=O)C(C)=O)C(C)=O (configuration not stated) | 0.0 |
| CNC(=O)CN(c1cc(C)ccc1C)S(C)(=O)=O | 0.3 |
| CCOC(=O)c1c(NC(=O)c2noc3c2CCCC3)sc(C)c1C | i |
| O=C(NCc1ccccc1)C12CN(Cc3ccccc3)CC1C(c1cccc([N+](=O)[O-])c1)=NO2 (configuration not stated) | i |
| COc1ccc2nc(SCc3cccnc3)c(C#N)cc2c1 | 2.0 |
| CC(C)(C)NC(=O)C1CCC(C)(C(=O)O)C1(C)C (configuration not stated) | i |
| CC1=C(C(=O)Nc2ccccc2)C(c2ccco2)C(C#N)=C(SCC(=O)OC(C)C)N1 (configuration not stated) | 0.0 |
| COc1ccccc1CN1C(=O)CN(C2CCCC2)C(=O)C1c1ccc(F)cc1 (configuration not stated) | 1.3 |
| Cc1nn(-c2ccccc2)c(C)c1C(=O)OCC(=O)N1c2ccccc2NC(=O)C1(C)C | i |
| CCOC(=O)CCn1c(CC(=O)OCC)nc2ccccc21 | i |
| C=CCNC(=O)CCNS(=O)(=O)c1ccc(Br)cc1 | 0.6 |
| CC(C)(C)c1cc(CN2CCN(CCO)CC2)cc(C(C)(C)C)c1O | i |
| Cc1cc2ncn(CC(O)COC3CCCCC3)c2cc1C (configuration not stated) | 2.4 |
| O=[N+]([O-])/C=C/c1c(OCc2ccccc2)ccc2ccccc12 | i |
| Cn1nnnc1SCC(=O)N1CCN(Cc2ccccc2)CC1 | 0.6 |
| CCc1ccc(NS(=O)(=O)c2ccc(OC)c(C)c2)cc1 | 0.2 |
| O=C(CNC(=O)C12CC3CC(CC(C3)C1)C2)NC1=NCCS1 | i |
| Cc1cc(C)c(C#N)c(SCCS(=O)(=O)Cc2ccccc2)n1 | 0.3 |
| CC1(c2ccccn2)Nc2ccccc2-c2nc3ccccc3n21 (configuration not stated) | i |

Among those listed so far, three have a tert-butyl group.
| canonical_smiles | H5N1 CPE |
| --- | --- |
| CC(C)(C)NC(=O)CSc1nnc(C2CC2)n1Cc1ccccc1 | i |
| CC(C)(C)NC(=O)C1CCC(C)(C(=O)O)C1(C)C (configuration not stated) | i |
| CC(C)(C)c1cc(CN2CCN(CCO)CC2)cc(C(C)(C)C)c1O | i |

Further records:
| canonical_smiles | H5N1 CPE |
| --- | --- |
| CC(=O)N(C)/C=C1\Sc2ccccc2C1=O | i |
| COc1ccc(-n2c(Cc3cccn3C)nnc2SCC(=O)NCC2CCCO2)cc1 (configuration not stated) | 0.4 |
| c1ccc(CNc2nc3ccccc3n3cnnc23)cc1 | 7.7 |
| O=C(NCCN1CCOCC1)c1ccc(CS(=O)(=O)Cc2ccccc2F)o1 | 1.7 |
| CN(C)c1nc(C(N)=O)nc(N2CCOCC2)n1 | 0.9 |
| CN1CCN(c2ccccc2NC(=O)C(Cc2ccccc2)n2cccc2)CC1 (configuration not stated) | i |
| Cc1ccc(NC(C#N)c2ccccc2OCc2ccccc2)cc1 (configuration not stated) | i |
| O=C(OC1CCCCC1=O)c1cc(=O)c2ccccc2o1 (configuration not stated) | 0.2 |
| COc1cccc(-c2cc(N)nn2C(=O)Nc2ccc(Cl)cc2)c1 | i |
| O=c1oc2ccc3ccccc3c2c2c1SC(C(F)(F)F)C2 (configuration not stated) | i |
| CCOc1ccc(OCc2ccc(C(=O)Nc3cccnc3)o2)cc1 | i |
| O=C(Nc1cccs1)Nc1ccccc1Cl | 8.8 |
| Cc1ccc2occ(CN3CC4CC(C3)c3cccc(=O)n3C4)c(=O)c2c1 (configuration not stated) | i |
| CN1CCN(C2=C(Cl)C(=O)N(Cc3ccccc3)C2=O)CC1 | i |
| O=C(COC(=O)c1ccncc1)NC(=O)C1CCCCC1 | i |
| Cc1ccc(S(=O)(=O)NCc2cn3c(C)csc3n2)cc1 | 0.1 |
| CCc1ccc(C2CC(=O)N3CN(c4ccccc4)CSC3=C2C#N)cc1 (configuration not stated) | i |
| CCC(CC)NC(=O)Cc1ccccc1[N+](=O)[O-] | 0.9 |
| Cc1ccc(NC(=O)c2ccccc2)cc1OC(=O)c1ccccc1 | i |
| COc1ccc(-n2c(Cc3cccn3C)nnc2SCC(=O)NCc2ccc(F)cc2)cc1 | 0.1 |
| CCN(CC)c1ccc(N2C(=O)/C(=C/c3cccnc3)SC2=S)cc1 | i |
| Cc1ccc2nc3c(c(N)c2c1)CCN3c1ccccc1 | 0.2 |
| O=C(OCc1nc2ccccc2s1)C1CCN(S(=O)(=O)c2cccs2)CC1 | i |
| CCOP(=O)(O)c1ccccc1OCCCCCOc1ccccc1P(=O)(O)OCC | i |
| O=C(CSCCO)Nc1ccc(C2CCCCC2)cc1 | i |
| CC1Oc2ccccc2N(CC(=O)NCC2CCCO2)C1=O (configuration not stated) | i |
| CN(c1ccccc1)S(=O)(=O)c1ccc(C(=O)Nc2nccs2)cc1 | i |
| COC(=O)c1cccc(Cn2c(Cl)c(/C=N/NC(=O)c3ccccc3Cl)sc2=O)c1 | i |
| COC(=O)c1cc(Cl)c(NC(=O)c2ccc(C(C)(C)C)cc2)cc1OC | 0.5 |
| CCOC(=O)C(C)CC(C)C(=O)N1CCOCCOCCN(C(=O)C(C)CC(C)C(=O)OCC)CCOCC1 (configuration not stated) | 0.4 |
| CN1CCN(C(=O)c2ccc(Cl)c(S(=O)(=O)N3CCCCC3)c2)CC1 | 0.3 |
| O=C(O)CC(C(=O)Nc1cccc(C(F)(F)F)c1)C1CCCO1 (configuration not stated) | 0.6 |

Quoted from the listing, three compounds:
| canonical_smiles | H5N1 CPE |
| --- | --- |
| CCOC(=O)C(C)CC(C)C(=O)N1CCOCCOCCN(C(=O)C(C)CC(C)C(=O)OCC)CCOCC1 (configuration not stated) | 0.4 |
| CN1CCN(C(=O)c2ccc(Cl)c(S(=O)(=O)N3CCCCC3)c2)CC1 | 0.3 |
| O=C(O)CC(C(=O)Nc1cccc(C(F)(F)F)c1)C1CCCO1 (configuration not stated) | 0.6 |

(continued)
| canonical_smiles | H5N1 CPE |
| --- | --- |
| Cn1c(C(=O)NC2CCCCC2)cc2c(=O)n(C)c3ccccc3c21 | i |
| CC(=O)c1cccc(NC(=O)CN2C(=O)NC3(CCCCCCC3)C2=O)c1 | i |
| Cc1ccc(/C=N/N2CCN(c3ccncc3S(=O)(=O)N3CCCCC3)CC2)cc1 | 1.9 |
| COc1ccccc1CNC(=O)c1cccs1 | 5.3 |
| COc1nc(NC(C)C)nc(NC(C)C)n1 | i |
| FC(F)(F)c1nnc2ccc(NCn3nnc4ccccc43)nn12 | 0.3 |
| Cn1c(Cc2ccccc2)nnc1SCC(=O)Nc1ccc2c(c1)OCO2 | i |
| O=C(Oc1ccc(-c2nccc(-c3ccccn3)n2)cc1)c1cccc(C(F)(F)F)c1 | 2.5 |
| CCCNC(=O)CC(NS(=O)(=O)c1ccc(Cl)cc1)c1ccco1 (configuration not stated) | 0.1 |
| O=C(Nc1ccc2c(c1)OCO2)C1COc2ccccc2O1 (configuration not stated) | i |
| O=C(NCc1ccccc1)NC(=O)c1ccncc1 | i |
| Cc1cccc(-n2nc([N+](=O)[O-])c(=NCc3cccnc3)n2O)c1 | i |
| O=C(CN1C2CCC1CC(NC(=O)NC1CCCCC1)C2)NC1CC1 (configuration not stated) | i |
| CCCc1cc(C(=O)Nc2ccc(F)cc2F)no1 | 0.8 |
| CCCCc1ccc(S(=O)(=O)NCCc2ccncc2)cc1 | 0.6 |
| COCCn1c(NCc2ccccc2)nc2c1c(=O)[nH]c(=O)n2C | i |
| CCOc1ccc(NC(=O)c2ccc(F)c(S(=O)(=O)N3CCN(c4ccccn4)CC3)c2)cc1 | i |
| CCCS(=O)(=O)N1CCC(C(=O)c2cccc(C(F)(F)F)c2)CC1 | i |
| Cc1ccc(-c2csc(NC(=O)c3cccc(S(=O)(=O)N4CCN(C)CC4)c3)n2)cc1 | i |
| CCCCN(CC)S(=O)(=O)N1CCC(C(=O)NCc2ccc(F)cc2)CC1 | i |
| CCNC(=O)Nn1c(-c2ccccc2)nc2ccccc2c1=O | 0.4 |
| CCCC(=O)Nc1ccc(N2CCN(CC)CC2)c(Cl)c1 | 0.3 |
| COc1ccc(-n2cnnc2SCC(=O)c2cc(C)n(Cc3cccs3)c2C)cc1 | 0.7 |
| CNC(=O)NC1CCCCc2sccc21 (configuration not stated) | 1.0 |
| O=C(O)Cn1c(SCCOc2ccccc2)nc2ccccc21 | i |
| CCOC(=O)CCC(=O)N1CCOCCOCCN(C(=O)CCC(=O)OCC)CCOCC1 | i |
| O=C(CC12CC3CC(CC(C3)C1)C2)Nc1ccc2c(c1)COC2=O | i |
| CC1=CC=CC2=NC(=O)CC(C)(C(=O)N(CC(=O)NC3CCCC3)c3ccccc3C)N12 (configuration not stated) | i |
| CCSc1nc2ccccc2n1S(=O)(=O)c1ccccc1 | 0.9 |
| O=C1Nc2ccccc2C12NCCc1c2[nH]c2ccccc12 (configuration not stated) | i |
| COc1ccc(N2CCN(C(=O)CCc3nc(-c4ccc(C)cc4)no3)CC2)cc1 | 0.1 |
| CCOC(=O)c1ccc(-c2ccc(/C=C(\C#N)C(=O)NCC3CCCO3)o2)cc1 (configuration not stated) | 0.2 |
| Cc1ccc(CN2C(=O)CCC2C(=O)NCc2ccc(F)cc2)cc1 (configuration not stated) | 0.1 |
| CC(C)c1ccc(-c2nc3c([nH]2)c(=O)n(C)c(=O)n3C)cc1 | 0.6 |
| COc1ccc(-c2nc(-c3cccc(C(F)(F)F)c3)no2)cc1OC | i |
| Cc1ccc(S(=O)(=O)N2CCN(S(=O)(=O)c3ccc(C)cc3)C2)cc1 | 0.8 |
| CC1=C(C(=O)OCc2ccccc2)C(c2ccc(N3CCOCC3)cc2)NC(=O)N1 (configuration not stated) | i |
| CN1CCN(S(=O)(=O)c2ccc(-c3ccc(Cl)cc3)cc2)CC1 | i |
| C=CCN(CC=C)C(=S)NC(=O)c1ccc(OC)c(Br)c1 | 0.4 |
| CN(C)CCNc1c2c(c(C#N)c3nc4ccccc4n13)CCCC2 | 1.4 |
| CS(=O)(=O)c1ccc(N2CCN(C3CC(=O)NC3=O)CC2)cc1 (configuration not stated) | i |
| Cn1c(=O)c2c(nc(N3CCCCC3)n2C)n(C)c1=O | 1.1 |
| CCc1ccc2oc(=O)cc(CN3CCN(CCO)CC3)c2c1 | i |
| O=C1Nc2ccc(F)cc2C12SCCS2 | i |
| Cc1ccc(C(OC(=O)c2ccco2)C(=O)NC2CCCCC2)cc1 (configuration not stated) | i |
| O=C(Nc1cccc(-c2nc3ccccc3o2)c1)c1ccc(N2C(=O)C3C4C=CC(C4)C3C2=O)cc1 (configuration not stated) | i |
| COc1cccc(NC(=O)CN(C)S(=O)(=O)c2ccc(C)cc2)c1 | 0.1 |
| CC(C)Sc1nnc([C@H](Cc2c[nH]c3ccccc23)NC(=O)OC(C)(C)C)o1 | 5.8 |
| CN(C)c1ccc(C(=O)C(O)c2ccc(C(C)(C)C)cc2)cc1 (configuration not stated) | i |
| CCN(c1ccc2c(c1)OCO2)S(=O)(=O)c1cc(Br)cc2c1N(C(=O)C1CC1)CC2 | i |
| CCOC(=O)C1CCN(c2c(N3CCN(Cc4ccccc4)CC3)c(=O)c2=O)CC1 | 0.2 |
| COc1ccccc1N1CCN(C(=O)c2ccoc2C)CC1 | i |
| O=c1cc(N2CCN(c3ccccc3)CC2)[nH]c(=O)n1-c1ccccc1Cl | i |
| CCN(CC)CCn1c(=S)[nH]c2ccccc2c1=O | 0.4 |
| C1=C(c2cccc3ccccc23)N2CCN=C2S1 | 1.1 |
| CC(=O)Nc1ccn(-c2ccccc2)n1 | i |

Laid out differently: results already given.
> Cc1ccc(C(OC(=O)c2ccco2)C(=O)NC2CCCCC2)cc1 (configuration not stated)
  H5N1 CPE: i
> O=C(Nc1cccc(-c2nc3ccccc3o2)c1)c1ccc(N2C(=O)C3C4C=CC(C4)C3C2=O)cc1 (configuration not stated)
  H5N1 CPE: i

Continued:
| canonical_smiles | H5N1 CPE |
| --- | --- |
| CCOc1ccc(NC(=S)N(Cc2ccc(N(C)C)cc2)Cc2ccco2)cc1 | 2.4 |
| Fc1ccc(NCc2cccnc2)cc1 | 0.5 |
| CCOc1c2c(nc3ccc(Cl)cc13)CCC2 | 0.8 |
| Cc1ccc2c(c1)N(CC(=O)NC1CCCc3ccccc31)C(=O)CO2 (configuration not stated) | 1.7 |
| CCCN(CCC)CC(=O)Nc1cccc2c1OCO2 | 1.4 |
| CCOc1ccc(OCC)c(NS(=O)(=O)c2ccc3c(c2)n(C)c(=O)c(=O)n3C)c1 | 4.8 |
| COC(=O)C1=C(C(C)=O)C(c2ccc(C(=O)OC)cc2)n2nnnc2N1 (configuration not stated) | 0.1 |
| CCN(CC)C(=O)CN(c1ccc2c(c1)OCO2)S(C)(=O)=O | 1.6 |
| COc1cnc(SCc2ccc(Cl)cc2Cl)nc1Cl | i |
| CCN(CC)c1ccc(CN(C(=O)c2cc(OC)c(OC)c(OC)c2)C2CCS(=O)(=O)C2)cc1 (configuration not stated) | 0.3 |
| COc1ccccc1N1CCN(C(=O)CSc2nnc3n2C(C)(C)Cc2ccccc2-3)CC1 | 2.6 |
| Cc1nn(C)cc1CNC(=O)CCC(=O)O | 0.3 |
| Cc1cccc(Nc2nc3c(c(=O)n(C)c(=O)n3C)n2CC(O)CO)c1 (configuration not stated) | 3.0 |
| O=C(Nc1nccs1)c1ccc(S(=O)(=O)NCc2cccs2)cc1 | i |
| CCCOc1ccc(N2C(=O)CC(SCCN)C2=O)cc1 (configuration not stated) | i |
| CCOc1c(Cl)cc(C(=O)Nc2ccccc2-c2ccccc2)cc1Cl | i |
| CCOC(=O)C(Cc1ccccc1)NC(=O)Cn1nnc(-c2ccc(SC)cc2)n1 (configuration not stated) | 0.6 |
| COC(=O)C1CCC(C)(C(=O)Nc2ccccc2)C1(C)C (configuration not stated) | 0.5 |
